# eIF4H inh – human eIF4H binding inhibitors, primary screen, translation initiation inhibitor project, biochemical, uHTS, fluorescence polarization; inhibition, % at 35 µM; Eukaryotic translation initiation factor 4H (Homo sapiens), Q15056; hit rate 0.94% among 290,000; eIF4H fluorescence polarization binding assay;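 active = 50% or more with normal probe brightness, or confirmed in later tests; about a fifth of its hits are not listed in these tables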;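 also: calls also rest on retests at 20 µM and on dose response follow-up; 0% = protein and probe with vehicle and 100% = probe without protein; strong numbers were not always called active; many hits fall short of the cut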
# Env fusion inh – inhibitors of HIV-1 Env-driven cell-cell fusion, primary screen, HeLa-JRFL effector, CEM21 target cells, luciferase | inhibition, % at 12.3 µM | hit rate 1.1% among 360,000;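 active = mean replicate inhibition score of at least 50 and every replicate individually at or above 50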;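 also: 0% = plate neutral controls and 100% = maraviroc near 300 nM; one replicate is shown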
# PABP polyA inh – PABP poly(A) RNA binding inhibitors, primary screen, biochemical, fluorescence polarization, uHTS. Polyadenylate-binding protein 1 (Homo sapiens), P11940. inhibition, % at 35 µM. hit rate 1% among 290,000;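 active = 50% or more with normal probe brightness, or confirmed in later tests; about a fifth of its hits are not listed in these tables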;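 also: calls also rest on retests at 20 µM and on dose response follow-up; controls were probe without protein and protein plus probe with vehicle; some compounds called inactive have numbers as strong as hits; many hits fall short of the cut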
# Yeast UUG start – modulators of yeast start codon fidelity, primary screen, whole organism, S. cerevisiae, single point, plate reader. AID 602363, 2012. activity score, % at 18.7 µM. hit rate 0.13% among 350,000. S. cerevisiae UUG-firefly luciferase reporter, luminescence/redox ratio;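 active = replicate mean at a twofold rise or more, about +100% in these data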;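 also: firefly luciferase made from a UUG start codon reports start codon fidelity; reporter light over untreated wells divided by growth signal over untreated wells; some hits fall short of that in this replicate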
# MT1-MMP act inh – blockers of MT1-MMP proenzyme processing, primary screen, HT1080 RFP-PRO-GFP cells, GFP/RFP fluorescence. GFP/RFP ratio fluorescence, overnight; percent of plate control window, DMSO zero. hit rate 0.061% among 360,000. Matrix metalloproteinase-14 (Homo sapiens), P50281. GFP/RFP ratio change, % at 20 µM;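 active = GFP/RFP ratio change of at least 30% with cell ATP level not reduced by more than half and red fluorescence within 50% of control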; also: strong numbers were not always called active
#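 Read-out: GFP/RFP fluorescence ratio; Test system: RFP-PRO-GFP reporter HT1080 cells; Compound dosing: single-point 20 µM compound, 1% DMSO; Times: overnight compound exposure at 37 °C.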
# CSC inhib – cancer stem cell viability inhibitors, primary screen, luminescence | cancer stem cell-like cells viability | inhibition, % at 7.5 µM | hit rate 1.1% among 300,000;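 active = mean at 75% or more and at least half the replicates too; tested in HMLE shEcad cells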;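 also: 0% = median of negative and 100% = median of positive control wells; the first replicate is given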
# Rce1 inh – yeast Rce1p protease inhibitors, primary screen, biochemical, fluorescence, cell-free homogeneous. CAAX prenyl protease 2 (Saccharomyces cerevisiae (strain ATCC 204508 / S288c)), Q03530. yeast membranes, quenched prenylated peptide cleavage fluorescence. calls only. hit rate 0.27% among 290,000. AID 2563, 2010;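 active = fall in fluorescence gain of 50% or more versus controls, with final raw signal at or below 3038400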;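 also: plate controls were neutral control wells for no effect and wells lacking membranes for full effect; tested at 10 µM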
# Target sequence (Q03530 whole entry, looked up): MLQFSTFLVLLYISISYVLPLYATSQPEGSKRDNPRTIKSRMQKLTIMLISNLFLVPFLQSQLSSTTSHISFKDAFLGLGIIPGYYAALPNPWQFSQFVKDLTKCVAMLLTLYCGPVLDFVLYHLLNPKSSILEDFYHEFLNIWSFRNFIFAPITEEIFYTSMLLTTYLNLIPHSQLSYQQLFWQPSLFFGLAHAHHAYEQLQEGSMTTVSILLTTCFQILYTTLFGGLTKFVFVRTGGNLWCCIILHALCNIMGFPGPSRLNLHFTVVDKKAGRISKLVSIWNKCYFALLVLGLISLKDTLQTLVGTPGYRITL
# eIF4H inh retest – also measured in eIF4H inh; calls as there; inhibition, %; compound at 20 µM; confirmation average;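 mean of two retest wells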
# PABP polyA inh retest – second read-out of PABP polyA inh, no call of its own (marks repeat the call); inhibition, %; compound at 20 µM; confirmation repeats;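 mean of two retest wells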
# MT1-MMP act inh RFP – also measured in MT1-MMP act inh; calls as there; RFP signal change, %; measured here: RFP expression control read;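 0 = vehicle wells; hits needed this value within 50% of zero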
# Numbers without * were called inactive; i = inactive; . = not tested or not shown; + = active, no number; & = joins results of further samples; [ ] = another dose, or the depositor's remark. This is a subset, so the mix of outcomes need not match the whole.
SMILES,eIF4H inh,Env fusion inh,PABP polyA inh,Yeast UUG start,MT1-MMP act inh,MT1-MMP act inh RFP,CSC inhib,Rce1 inh,others
O=C(C1=C[C@H](c2ccc3c(c2)OCO3)C[C@H](OCCCCO)O1)N1CCN(Cc2ccccc2)CC1,0,6[16.7 µM],0,-13&2,-1,-3,-8,i,
O=C(C1CCN(C2CCN(CC3CC=CCC3)CC2)CC1)N1CCOCC1 (stereo not given),-4,-9,-2,-8,2,2,-1,i,
COc1cccc(CNC(=O)N2CCN(c3ccccc3)CC2)c1,7,3,12,0,0,1,-12,i,
COc1ccc2c(CN3CCCC3)cc(=O)oc2c1,.,-5,.,-16,3,6,.,.,
COc1ccc2[nH]c(CN3CCN(CC=C(C)C)C(CCO)C3)c(C)c2c1 (stereo not given),1,22,3,-12,2,4,14,i,
O=C1CC(N2CCN(c3ccc(O)cc3)CC2)C(=O)N1c1ccc2c(c1)OCO2 (stereo not given),-13,3,1,.,-6,3,3,i,
O=S(=O)(O)c1ccc(N=NNc2ccc(Br)cc2)cc1,6,-2,6,-17,-2,-2,18,i,
C/C(=N\Nc1nc(Nc2ccccc2)nc(N2CCOCC2)n1)c1cccs1,-2,14,-4,.,-5,-4,.,i,
CCC1CCCCN1C(=O)c1ccc(OC2CCN(C(=O)CCOC)CC2)cc1 (stereo not given),-11,-10,5,4,1,0,8,i,
CN(C)/C=C/C(=O)c1ccc(-c2ccc(Cl)cc2Cl)o1,14,-29,-8,.,-36,2,-16,i,
CCCCN(C(=O)NCCCCCCNC(=O)N(CCCC)C1CCS(=O)(=O)C1)C1CCS(=O)(=O)C1 (stereo not given),-2,-1,2,.,-2,3,-8,i,
CCOC(=O)Cn1c(=O)oc2cc(S(=O)(=O)NCCCc3ccccc3)ccc21,1,-6,4,-3,2,4,-12,i,
COc1cc(OC)cc(C(=O)NC(C(=O)NNC(=O)CN(C)S(=O)(=O)c2ccc(C)cc2)C(C)C)c1 (stereo not given),.,13,.,-2,-4,-2,.,.,
Cc1ccnc(NS(=O)(=O)c2cccs2)c1,-1,.,-17,-15,1,2,-5,i,
O[C@@H](c1cc(C(F)(F)F)nc2c(C(F)(F)F)cccc12)[C@H]1CCCCN1,.,-18,.,5,-12,-10,37,i,
CCOC(=O)c1cc(C(=O)c2cc(F)ccc2O)coc1=N,-6,-60,4,-6,-1,-2,.,i,
COc1ccc(/C=C2/C(=O)N(c3cccc(F)c3)N=C2C)c(OC)c1,1,9,6,-10,-9,-9,-11,i,
Cc1cccc(N(C(=O)Cc2cccs2)C(C(=O)NC2CCCC2)c2ccsc2)c1 (stereo not given),-3,.,-6,8,4,0,.,.,
COc1ccc(N2C(=NC(=O)C(C)Oc3ccccc3)SC3CS(=O)(=O)CC32)cc1 (stereo not given),-23,7,-1,0,-3,-5,-5,i,
CC(=O)/C(=N/Nc1ccccc1Cl)Sc1nnc(C(O)c2ccccc2)n1-c1ccccc1 (stereo not given),-3,7,2,-9,-9,-5,-7,i,
COc1ccc(C(CC(=O)O)NC(=O)c2cccs2)cc1 (stereo not given),10,-25,-2,-10,-4,0,0,i,
CN1CCN(c2ccc([N+](=O)[O-])cc2NC(=O)c2cccs2)CC1,-11,-9,-17,-15,-6,3,.,i,
CCC(=O)NC(=S)Nc1ccc(NC(=O)c2cccc([N+](=O)[O-])c2C)cc1,-6,5,-9,.,2,-6,12,i,
CCc1cccc(NC(=O)CN(c2ccc(C)cc2)S(=O)(=O)c2c(C)noc2C)c1,-12,9,-4,-9,-3,-7,14,i,
OCC1(CCOc2ccccc2)CCN(Cc2ccncc2)CC1,-7,6,-3,-17,-3,-9,23,i,

# Filtered by structure: those above containing a nitro group on carbon.
SMILES,eIF4H inh,Env fusion inh,PABP polyA inh,Yeast UUG start,MT1-MMP act inh,MT1-MMP act inh RFP,CSC inhib,Rce1 inh,others
CN1CCN(c2ccc([N+](=O)[O-])cc2NC(=O)c2cccs2)CC1,-11,-9,-17,-15,-6,3,.,i,
CCC(=O)NC(=S)Nc1ccc(NC(=O)c2cccc([N+](=O)[O-])c2C)cc1,-6,5,-9,.,2,-6,12,i,

# Other records.
SMILES,eIF4H inh,Env fusion inh,PABP polyA inh,Yeast UUG start,MT1-MMP act inh,MT1-MMP act inh RFP,CSC inhib,Rce1 inh,others
O=C(COc1ccccc1Br)NCCc1nc2ccccc2[nH]1,13,.,1,.,3,5,-26,i,
Cn1ncc(Br)c1C(=O)NCc1cccs1,4,.,6,-15,-2,-6,-7,i,
Cn1c(-c2ccc(C(F)(F)F)cc2)cc2onc(-c3ccccc3)c2c1=O,.,-241,.,-13,1,-4,-9,.,
O=C1CC(NNC(=O)c2cccc(F)c2)C(=O)N1 (stereo not given),1,-9,3,.,3,4,-5,i,
CCOC(=O)C1CCN(S(=O)(=O)c2ccc3c(ccn3C)c2)CC1,4,6,13,-10,2,-3,3,i,
CS(=O)(=O)c1cnc(-c2ccccc2)nc1Oc1ccc(Cl)cc1,3,.,35,.,-3,-1,-19,i,
Cc1ccc(CNc2ccc(O)cc2)cc1,25,-47,29,-20,26,16,.,i,
CCN(CC(=O)Nc1ccc2c(c1)OCCO2)c1ccc(S(=O)(=O)N2CCOCC2)cn1,-8,6,-4,-6,0,4,-11,i,
CC1CCCCN1C(=O)COC(=O)Cc1c[nH]c2ccccc12 (stereo not given),.,-1,.,-15,2,5,-12,.,
COc1ccc2nc(-n3c(O)c(C4=c5ccccc5=NC4=O)[nH]c3=S)sc2c1,62*,2,1.0*,-4,35*,0.0*,111*,i,eIF4H inh retest=102*;PABP polyA inh retest=67*
COc1ccc(NC(=O)C2(c3ccc(NC(=O)c4ccc(OC)cc4)cc3)CCCC2)cc1,-9,4,10,-15,1,7,-5,i,
O=C(NC(c1ccccc1)c1ccc2ccccc2n1)C1CCN(Cc2ccc(Oc3ccccc3)cc2)CC1 (stereo not given),.,20,.,-9,1,-6,.,.,
COC(=O)c1sccc1Oc1ccc(F)cc1[N+](=O)[O-],-11,.,4,-17,1,-3,0,i,
O=C(CC1NCCc2ccccc21)Nc1ccccc1 (stereo not given),6,1,3,.,1,7,-12,i,
CCCCn1c(SCC(=O)Nc2nccs2)nc2ccccc2c1=O,0,-306,1,-16,-4,0,-13,i,
Cn1cncc1C#Cc1ccc2cc(CCO)oc(=O)c2c1,.,-2,.,-15,-2,1,-21,.,
NC(=O)c1cccc(Nc2nc(C(N)CCc3ccccc3)cs2)n1 (stereo not given),.,-1,.,-11,-6,-3,.,.,
Cc1ccc(C(=O)Oc2coc(CSc3nnc(NC(=O)C4CC4)s3)cc2=O)cc1,8,-4,-19,.,5,4,32,i,
CC(=O)C1=C(O)C(=O)N(c2ccc(Br)cc2)C1c1ccccc1[N+](=O)[O-] (stereo not given),-12,-90,9,-6,2,5,-7,i,
COc1ccc(C(c2nnnn2CC2CCCO2)N2CCC(C(N)=O)CC2)cc1 (stereo not given),-13,-95,4,-12,-4,2,-8,i,
C/C(CC(=O)Nc1cc(Cl)ccc1Cl)=N\NC(=O)COc1cccc(C)c1,0,9,1,-3,-2,0,-17,i,
CCC(C)N(C(=O)c1csnn1)C(C(=O)NCc1ccc(F)cc1)c1ccccc1 (stereo not given),-6,12,0,-12,4,5,1,.,
CS(=O)(=O)N1CCCC(C(=O)c2cccc(Cl)c2)C1 (stereo not given),-10,10,-3,.,2,3,-21,i,
C=C(C)c1cccc(C(C)(C)NC(=O)Nc2nncs2)c1,4,-5,-3,-16,1,0,20,i,
CC(C)(Oc1ccc(Cl)cc1)C(=O)NCc1ccncc1,-9,2,-22,-17,-3,-2,-13,i,

# Three records picked at random from those above:
SMILES,eIF4H inh,Env fusion inh,PABP polyA inh,Yeast UUG start,MT1-MMP act inh,MT1-MMP act inh RFP,CSC inhib,Rce1 inh,others
CC(C)(Oc1ccc(Cl)cc1)C(=O)NCc1ccncc1,-9,2,-22,-17,-3,-2,-13,i,
O=C(COc1ccccc1Br)NCCc1nc2ccccc2[nH]1,13,.,1,.,3,5,-26,i,
COc1ccc(NC(=O)C2(c3ccc(NC(=O)c4ccc(OC)cc4)cc3)CCCC2)cc1,-9,4,10,-15,1,7,-5,i,

# More structures follow:
SMILES,eIF4H inh,Env fusion inh,PABP polyA inh,Yeast UUG start,MT1-MMP act inh,MT1-MMP act inh RFP,CSC inhib,Rce1 inh,others
CCCCNC(=O)C1(C)CCC(=O)N1C1CCN(Cc2ccccc2)CC1 (stereo not given),.,64*,.,-6,1,4,.,.,
CN1C(=O)c2ccccc2N(C)C1c1ccc(F)cc1 (stereo not given),-1,-11,4,-3,1,-5,-7,i,
O=C1Cc2cc(S(=O)(=O)N3CCN(c4ccccc4)CC3)ccc2N1,-15,8,-18,-14,-7,-1,.,i,
Cc1cc(NC(=O)C(C)SCC(=O)OC(C)C(=O)Nc2ccc(F)cc2Cl)no1 (stereo not given),.,-10,.,.,-2,2,-13,i,
O=C(CCC(=O)N1CCOc2ccccc21)N1CCOCC1,-4,-21,-1,-20,-1,-2,-9,i,
CCOC(=O)C1CCN(C(=O)c2ccc(NC(=O)C3CCCO3)cc2)CC1 (stereo not given),-10,2,5,-6,-3,-3,-11,i,
CC1(C)CC(=O)C(C=NCCO)=C(O)C1,-6,.,5,-17,2,1,-11,i,
CCOC(=O)NCc1ccc2[nH]c(C)cc2c1,2,.,1,-11,4,9,13,i,
CC(=O)Nc1ccc(C=NNc2ccc([N+](=O)[O-])cc2S(=O)(=O)Nc2ccccc2C(=O)O)cc1,.,-17,.,-11,0,-1,-4,.,
O=C1CC(c2ccc(S(=O)(=O)N3CCCCC3)cc2)CN1 (stereo not given),-2,-50,-10,14,3,3,-4,i,
C/C(CC(=O)Nc1ccccc1C#N)=N\NC(=O)c1ccncc1,10,1,0,-6,0,2,-6,i,
CC(OC(=O)CNC(=O)C1CCCCC1)C(=O)NCc1ccccc1 (stereo not given),.,.,.,-14,2,2,4,.,
COc1ccc(CN(C2CCCC2)S(=O)(=O)c2ccc(-n3cnnn3)c(OC)c2)cc1OC,-10,.,17,-3,2,-9,-1,+,
CC1(C)CC(=O)/C(=C\c2cccc([N+](=O)[O-])c2)C(C)(C)N1,-2,29,1,.,-2,-3,65,i,
COc1ccc(C2=NN(C(=O)CSc3nc4ccccc4s3)C(c3ccc(F)cc3)C2)cc1 (stereo not given),-1,4,0,.,-2,-3,1,i,
CN(Cc1ccccc1)S(=O)(=O)c1ccc2c(c1)n(C)c(=O)c(=O)n2C,6,3,-4,.,8,0,.,i,
CCCC(C)C(=O)Nc1nc(C)c(-c2csc(Nc3ccccc3OC)n2)s1 (stereo not given),-6,39,1,5,10,-3,55,i,
Cc1csc(NC(=O)C(C)Oc2ccc(Br)cc2)n1 (stereo not given),.,-7,.,-5,-7,-3,5,i,
CSCC[C@H](NC(=O)c1ccc2c(c1)OCO2)c1nnc2ccccn12,-9,2,3,-8,-6,-2,-3,i,
Cc1ccc(NS(=O)(=O)c2ccc(-c3coc(C)n3)cc2)c(C)c1,-10,0,8,-27,1,-7,0,i,
O=[N+]([O-])c1ccc(C(S(=O)(=O)Cc2ccccc2)S(=O)(=O)Cc2ccccc2)cc1,.,8,.,-6,0,-6,.,.,
CS(=O)(=O)c1cccc(C(=O)NCc2ccc(F)cc2)c1,-10,.,1,-11,1,4,32,.,
COC(=O)Nc1ccc(S(=O)(=O)NNC(=O)c2c(O)c3ccccc3n(C)c2=O)cc1,-17,10,2,4,3,5,23,i,

# Screening data: PubChem BioAssay, several laboratories
